NPYLR7 ag: agonists of mosquito NPYLR7 receptor, primary screen, cell-based, Aedes aegypti, calcium fluorescence, mosquito biting behavior; Aedes aegypti neuropeptide Y-like receptor 7 (NPYLR7); HEK293T NPYLR7/Galpha15, GCaMP6s calcium fluorescence; activation, % at 10 µM; hit rate 0.15% among 270,000; AID 1259423, 2018; in the data active = activation above about 40%;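 also: 0% = vehicle and 100% = reference agonist at the receptor; some compounds past the cut are filed as inactive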
NPYLR7 ag max-min: second read-out of NPYLR7 ag, no call of its own (marks repeat the call); activation, %; measured here: Max-Min RFU normalised activation; some inactives read as strong as hits;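 span of the calcium signal over five minutes; 0% = vehicle and 100% = native peptide agonist; compound fluorescence can raise it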
The depositor's hits bear a star; i = inactive; & = joins results of further samples. This is a subset (hit frequency here may not be typical).

#	canonical_smiles	NPYLR7 ag	NPYLR7 ag max-min
1	CN(C)C(=NS(=O)(=O)c1ccc(Cl)cc1)c1ccc(Cl)cc1	4	3
2	CCCN(CCC(=O)N1CCN(CC)CC1)c1nc(CC)nc2cc(Cl)ccc12	-9	-6
3	CC(=O)c1sc(Cc2cccc(Cl)c2)nc1C	0	-1
4	O=C(NCCc1ccccc1F)c1ccc(Nc2cccc(C(F)(F)F)c2)nc1	4	3
5	Cn1cc(CN2CCCC2c2ccccn2)c2ccccc21 (centres undefined)	3	0
6	COc1cccc(C2CNCC2C(=O)NC(C)C)c1OC (centres undefined)	12	9
7	CCOC(=NC(C)CC)NC(=O)c1ccccc1C (centres undefined)	12	12
8	COc1ccc(-n2nc(C(C)(C)C)cc2NC(=O)CN(CCC(C)C)C(=O)c2cc(C(F)(F)F)cc(C(F)(F)F)c2)cc1	18	20
9	C=CCn1c(SCC(=O)c2cc(C)n(Cc3ccco3)c2C)nnc1-c1ccoc1C	8	10
10	O=S(c1ccccc1)c1ccc2nnnn2n1 (centres undefined)	1	-9
11	COc1ccc(S(=O)(=O)Oc2cccc(CN(CC3CCCO3)C(=O)c3ccco3)c2)cc1 (centres undefined)	3	16
12	Cc1ccncc1C(=O)N1CCOc2c(O)cc(-c3cccc(Cl)c3)cc2C1	11	6
13	COCCN(Cc1csc(COc2c(OC)cccc2OC)n1)C(=O)c1ccccc1F	13	15
14	Cc1cc(NC(=O)CN2CCCc3c2[nH]c2ccccc32)n(C)n1	-19	-25
15	Cc1ccccc1Cn1c(C)c(N2CCOCC2)c(C)c1C(=O)NCc1ccc(F)cc1	20	8

Entries by screen from the entries so far.
NPYLR7 ag max-min, nos. 3 to 14, in order: -1, 3, 0, 9, 12, 20, 10, -9, 16, 6, 15, -25

More structures follow.
#	canonical_smiles	NPYLR7 ag	NPYLR7 ag max-min
16	O=C1CN(C(=O)c2noc3c2CCCC3)CC(OCc2cccnc2)CN1CC1CCOCC1 (centres undefined)	8	-5
17	Fc1ccc(F)c(-n2c(C3C4CCCCC43)n[nH]c2=S)c1 (centres undefined)	-4	-10
18	O=C(NC1CCN(c2ccc(S(=O)(=O)C(F)(F)F)cc2)CC1)c1ccccc1	6	5
19	Cc1c(C(=O)N(C)Cc2ccc(F)cc2)sc(=O)n1CCOc1ccc(F)cc1	-6	-2
20	O=C(NCCn1ncc2c(N3CCCCCC3)ncnc21)C1CCCC1	1	-1
21	Cc1cc(C(F)(F)F)nc(CCNC(=O)c2cn(CCc3ccccc3)nn2)n1	12	2
22	Cc1c(NC(=O)Cc2csc(NC(=O)Nc3ccc(Cl)cc3)n2)c(=O)n(-c2ccccc2)n1C	-5	-4
23	O=C(Nc1cccc(-c2ccc3nnc(-c4cccs4)n3n2)c1)c1ccco1	-19	-16
24	CCc1c(C)c(C(=O)NCc2ccccn2)n(CC)c1C	-3	9
25	Cc1nnc(CN(C)Cc2cccc(C(=O)Nc3ccc4c(c3)OCO4)c2)o1	5	2
26	COCCCNS(=O)(=O)c1ccc(S(=O)(=O)N(C)C)cc1	-1	-1
27	COc1ccccc1OCC(=O)NCC1CCCN(C2CCCCC2)C1 (centres undefined)	-1	-6
28	O=C(Nc1ccc(-c2nc3cc(Cl)ccc3o2)cc1)c1cccs1	-2	13
29	Cn1cccc1CCC(=O)N1C[C@H]2CC=CC[C@H]2C1	6	4
30	CCOC(=O)C1CCN(C(=O)C2COC3(CCC(C)CC3)N2C(=O)c2ccccc2)CC1 (centres undefined)	12	25
31	C#CCn1c(=NC(=O)c2cccc(S(C)(=O)=O)c2)sc2cc(F)ccc21	5	-1
32	COc1cc(CN(Cc2ccc(C(O)(c3ccccc3)c3ccccc3)o2)CC(C)C)cc(OC)c1	4	4
33	COc1cn(CC(N)=O)c(CN2CCN(c3ccc(F)cc3)CC2)cc1=O	2	1
34	CCOc1ccc(-n2nnnc2CN2CCN(C(=O)OC)CC2)cc1	-1	-2
35	C=CCN(CC(=O)N(Cc1cccn1C)CC(C)C)C(=O)Nc1c(Cl)cccc1Cl	7	16
36	c1ccc2[nH]c(N3CCN(Cc4cc5n(n4)CCCNC5)CC3)nc2c1	12	10
37	Cc1nc2ccc(C(=O)NCCCn3ccnc3)cn2c1N(C)C(=O)CCc1ccccc1	-3	12
38	CC1CC1C(=O)OCc1ccnc(C#N)c1 (centres undefined)	14	5
39	COc1ccc(NC(=O)N2CCN(c3cc(Oc4ccc(F)c(Cl)c4)ncn3)CC2C)cc1 (centres undefined)	-10	-7
40	CON(C)C(=O)c1cc(C)cc(Br)c1O	4	2
41	C=CCN1C(=O)C2(CC(=O)N(CCc3cccc(OC)c3)C2=O)c2cc(OC)ccc21 (centres undefined)	2	-5
42	COc1ccc2cc(C3CN(C(=O)c4cc(=O)c(OC)c[nH]4)CCO3)ccc2c1 (centres undefined)	17	8
43	CCn1ncnc1C(C)NC(=O)Cc1cc2c(cc1Cl)OCCO2 (centres undefined)	3	2
44	CCOC(=O)C1(NS(=O)(=O)c2ccccc2OC)CCCC1	-1	-3
45	O=C(NCC1CC1)c1ccc2sc([C@H]3C[C@H](O)[C@@H](CO)O3)nc2c1	24	13
46	O=C(CSc1nc(Cl)cc(N2CCN(c3ccccc3F)CC2)n1)N1CCc2ccccc2C1	18	21
47	CCCCCc1ccc(/C=C/[C@H](O)[C@@H](CO)NC)cc1	2	-3
48	OCCC#Cc1ccc(CN2CCC3(CCCN(CC4CCC4)C3)C2)cc1 (centres undefined)	24	13
49	COc1ccc(S(=O)(=O)Oc2cc(CN(Cc3ccco3)C(=O)NC(C)C)ccc2OC)cc1	11	-4
50	CC(NC(=O)COc1ccccc1)C(=O)N1CCN(C)CC1c1ccccc1 (centres undefined)	4	3
51	CCCCCCCCCCCC1=C(O)C(=O)C=C(O)C1=O	1	-10
52	COc1cccc(OC)c1OCc1nc(CN(CCN2CCOCC2)C(=O)CC(C)C)cs1	15	12
53	Brc1ccc2nc(-n3nnc4ccccc43)nc(-c3ccccc3)c2c1	-3	-5
54	COC(=O)c1c(NC(=O)c2cc3nc(-c4ccc(OC)cc4)cc(C(F)(F)F)n3n2)sc2c1CCCC2	-4	-10
55	CCN1CCN(C(c2ccc(C)cc2)c2c(O)cc(C)n(CC)c2=O)CC1 (centres undefined)	5	1
56	Cc1ccc(-c2nnc(CN3CCCC4(CNC(=O)O4)C3)o2)n1C (centres undefined)	7	5
57	CN1CCCCC1(C)C(=O)NCc1ccc2c(c1)OCO2 (centres undefined)	2	-1
58	O=C(O)c1coc(CN(CCc2c[nH]c3ccccc23)Cc2ccc(Cl)cc2Cl)n1	9	8
59	CN(CCOc1cccc(Cl)c1)c1c(C#N)c(=O)n(C)c(=O)n1C	3	1
60	O=C(Nc1cc(Cl)ccc1NC1CC1)C1CC1c1ccc(F)cc1F (centres undefined)	2	1
61	CC(c1ccccc1F)S(=O)Cc1ccc(-n2cccn2)cc1 (centres undefined)	7	i
62	COCCNC(=O)c1coc(CN(Cc2cccc(Oc3ccccc3)c2)Cc2ccc3c(c2)OCO3)n1	17	16
63	O=C(c1ccc(CSc2nnc3ccccn23)cc1)N1CCc2ccccc2C1	-10	-12
64	COC[P+](c1ccccc1)(c1ccccc1)c1ccccc1	4	3
65	O=[N+]([O-])c1cc(Cl)cc(C=NNc2ncc(C(F)(F)F)cc2Cl)c1O	-1	22
66	CC(C)c1nn(C)c(Cl)c1C(=O)NCC(O)c1ccco1 (centres undefined)	0	0
67	O=C(Nc1cccc(Cl)c1)Nc1c2ccccc2nc(=O)n1Cc1cccs1	12	14
68	COc1ccc(-n2ncc(Oc3ccc(Cl)c(C)c3)c(Nc3cccc(C(=O)NCc4ccccn4)c3)c2=O)cc1	11	11
69	CC(C)N(Cc1cn(C)nc1-c1ccc(C2CCCCC2)cc1)Cc1nccn1C	-1&6	-2&6
70	CCOC(=O)c1ccc(S(=O)(=O)NCCn2nc(-c3cccnc3)ccc2=O)cc1	14	7
71	N#Cc1ccccc1CO[C@]1(C(=O)NCC2CCCO2)CC(OCc2cccc(F)c2F)[C@H](O)[C@H](O)C1 (some centres undefined)	2	14
72	Cc1nn(-c2ccccc2)c(N)c1N=Nc1ccc([N+](=O)[O-])c(C(F)(F)F)c1	6	3
73	CC1CCCCC1NC(=O)COc1cccc(-c2cn[nH]c2)c1 (centres undefined)	5	6
74	Cc1csc(SCc2cc(=O)c(OC(=O)c3ccco3)co2)n1	-4	-8
75	O=C1OC(/C=C/c2ccc(Cl)cc2)=NC/1=C/c1ccc([N+](=O)[O-])cc1	-13	-16

More records follow:
#	canonical_smiles	NPYLR7 ag	NPYLR7 ag max-min
76	O=C(CN1C(=O)CSC1=O)Nc1nccs1	9	10
77	CNc1ncccc1CN1C[C@H](N(C)C)C[C@H]1CO	12	8
78	O=C1OC(OC2CCCCC2)(c2ccccc2)c2ccccc21 (centres undefined)	-1	1
79	CC1=C(C(=O)OC(C)C(C)(C)C)C(c2ccc(N(C)C)cc2)NC(=O)N1 (centres undefined)	4	4
80	COCCn1cc(C(=O)N2CCN(C(=O)c3ccco3)CC2)c2nn(-c3ccccc3)c(=O)c-2c1	9	8
81	Cn1c(CNC(=O)CC2CCCC2)nnc1SCc1ccccn1	-2	-9
82	Cc1cc(C)cc(C(=O)Nc2cc(C)nn2-c2nc(C)cc(=O)[nH]2)c1	11	6
83	Oc1oc(-c2ccccc2)nc1C=C1C=Nc2ccccc21	0	-13
84	CCCCN(C)C(=O)c1ccc(CN2C(=O)c3ccccc3C2=O)cc1	5	3
85	CCOC(=O)c1ccc(NC(=O)Nc2ccc(N3CCN(c4ccccc4OC)CC3)c(C(=O)N3CCCCC3)c2)cc1	5	6
86	CC(=O)c1ccc(N2CCN(C(=O)c3ccc(N(C)C)cc3)CC2)cc1	18	9
87	NC(=O)CN1CCCc2cc(OC(F)(F)F)ccc21	2	-1
88	CN(CCCNC(=O)c1c[nH]c(=O)c(Cl)c1)c1ccccc1	3	-1
89	CCN1CCN(S(=O)(=O)c2ccc(OC)c(N3CCN(C(=O)c4cc(C)oc4C)CC3)c2)CC1	21	30
90	O=C(c1ccc2oc(Cc3ccccc3)nc2c1)N1CCC2(C=Cc3ccccc32)CC1	12	2

Molecules from the list above containing a thiophene ring, fused or not, in the order listed:
#	canonical_smiles	NPYLR7 ag	NPYLR7 ag max-min
23	O=C(Nc1cccc(-c2ccc3nnc(-c4cccs4)n3n2)c1)c1ccco1	-19	-16
28	O=C(Nc1ccc(-c2nc3cc(Cl)ccc3o2)cc1)c1cccs1	-2	13
54	COC(=O)c1c(NC(=O)c2cc3nc(-c4ccc(OC)cc4)cc(C(F)(F)F)n3n2)sc2c1CCCC2	-4	-10
67	O=C(Nc1cccc(Cl)c1)Nc1c2ccccc2nc(=O)n1Cc1cccs1	12	14

Part of the list above in order of formula weight, largest number first.
#	canonical_smiles	NPYLR7 ag	NPYLR7 ag max-min
89	CCN1CCN(S(=O)(=O)c2ccc(OC)c(N3CCN(C(=O)c4cc(C)oc4C)CC3)c2)CC1	21	30
37	Cc1nc2ccc(C(=O)NCCCn3ccnc3)cn2c1N(C)C(=O)CCc1ccccc1	-3	12
55	CCN1CCN(C(c2ccc(C)cc2)c2c(O)cc(C)n(CC)c2=O)CC1 (centres undefined)	5	1
20	O=C(NCCn1ncc2c(N3CCCCCC3)ncnc21)C1CCCC1	1	-1
10	O=S(c1ccccc1)c1ccc2nnnn2n1 (centres undefined)	1	-9

(continued)
#	canonical_smiles	NPYLR7 ag	NPYLR7 ag max-min
91	CSc1ccc(C(=O)C2CCCN(Cc3ccc(OC(C)C)c(CO)c3)C2)cc1 (centres undefined)	7	0
92	CCC1c2cccn2CCN1S(=O)(=O)NCc1ccccc1 (centres undefined)	0	0
93	Cc1ccc2nc(C3CCCN3CC(=O)NCc3ccccn3)[nH]c2c1 (centres undefined)	-3	-4
94	CNC(=O)Cn1nc(C)c2cnn(-c3cccc(Cl)c3)c2c1=O	3	2
95	Cc1cccc(CC(=O)NC2CCN(C(=O)c3ccncc3)CC2)c1	9	11
96	O=C(NCC1(c2ccc(Cl)cc2)CC1)c1ccccc1C1CCNC1 (centres undefined)	-3	-12
97	COc1cc(CSc2nnc(N)s2)cc(OC)c1	15	11
98	CC(C)c1nc(SCC(=O)N(C(C)C)C2CCCCC2)n[nH]1	13	10
99	COc1ccc(C)cc1NC(=O)c1nnn(-c2ccc(C)c(C)c2)c1-c1cccnc1	20	12
100	COc1ccc(C(O)(c2ccc(OC)cc2)c2ccc(CN(CCN3CCOCC3)Cc3ccccc3OC)o2)cc1	-1	3
101	Cc1ccc(-n2nnc3c(N4CCN(C(=O)C5CC(=O)N(c6ccccc6)C5)CC4)ncnc32)cc1 (centres undefined)	-2	-8
102	Cc1[nH]c2ccccc2c1C(=O)COc1ccc(C(N)=O)cc1	-2	-1
103	O=C(N=c1sccn1Cc1cccc2ccccc12)C1CCS(=O)(=O)C1 (centres undefined)	0	15
104	COC(=O)[C@@H]1C[C@H](NC(=O)Nc2cccc(Oc3ccccc3)c2)CN1C	8	6
105	CCOCCn1c(N2CCNCC2)nc2c1c(=O)[nH]c(=O)n2C	1	3
106	COCCNC(=O)CC(c1ccc(OC)c(OC)c1)c1cn(C)c2ccccc12 (centres undefined)	29	36
107	O=C(CSC1=NS(=O)(=O)c2ccccc2N1)NCCc1ccccc1	10	5
108	COCCCN(CC(=O)N(Cc1cccn1Cc1ccccc1Cl)CC(C)C)C(=O)NC1CCCCC1	-4	-1
109	COCOc1ccc(-c2cc(-c3ccc(C(=O)c4ccccc4)cc3)cnc2N)cc1	24	4
110	CCn1ccnc1S(=O)(=O)CC(=O)N(C)CC(F)(F)F	1	0
111	COc1ccc(OC)c2sc(N(CC3CCCO3)C(=O)c3cc(C)on3)nc12 (centres undefined)	1	0
112	Cc1[nH]c2c(c1C(=O)N1CCCN(CC3CC3)C(C(C)C)C1)C(=O)CCC2 (centres undefined)	-1	-2
113	O=C(COc1ccccc1Cl)Nc1nc(C2CC2)cs1	0	0
114	CCCc1cc(NCCCn2ccnc2)n2nc(C)c(-c3ccccc3)c2n1	2	9
